Methyltransferases: Primary Screen for Target Class Profiling of Small Molecule Inhibitors of Methyltransferases | purified enzyme, MTase-Glo SAH luminescence; active compounds read low | calls only at 40 µM | 25,000 compounds, 3.9% hits | AID 1745853, 2022; active = -50% or lower on at least one of six enzymes; inconclusive = the cases between; inactive = as a rule above -30% on all six;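 note: enzymes were COMT GAMT GNMT HNMT NNMT and PNMT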
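Each enzyme was assayed with SAM and its substrate. SAH formation detected by MTase-Glo luminescence; single-point 40 uM screen[…].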
Calls only; i = inactive; ? = inconclusive; + = active, no number. % is set by controls: 0 for no effect and ±100 for the full control effect.

molecule | Methyltransferases
CC1(C(=O)NC2CCCCC2)Cn2c(nc3ccccc32)C(=O)N1Cc1cccs1 (stereo not given) | i
COc1ccc(OC)c(CCNC(=O)CCn2ccc3cc(S(=O)(=O)N4CCCC4)ccc32)c1 | i
CCOc1ccc(C2c3cccn3-c3sc4c(c3CN2C(=O)Nc2ccc(F)cc2)CCCC4)cc1 (stereo not given) | i
COC(=O)CC(NC(=O)Nc1cccn2nc(C)nc12)c1ccccc1 (stereo not given) | i
CN(CCc1ccccn1)C(=O)CCC[C@@H]1[C@H]2CCCN3CCC[C@@H](CN1C(=O)c1ccccc1)[C@@H]23 | i
OC1(c2ccc(Cl)cc2)CCN(Cc2c[nH]c3ccccc23)CC1 | i
CCCC1c2ccc(C)n2CCN1C(=O)Nc1ccc(OC)cc1OC (stereo not given) | i
O=C(Nc1cnc(-c2ccc(Cl)cc2)nc1)c1cccs1 | i
Cc1cccc(N2C(=O)c3ccc(-c4ccco4)n3CC2(C)C(=O)NCc2ccccc2)c1C (stereo not given) | i
O=C(O)CC1CC(c2ccccc2)=NO1 (stereo not given) | i
CC12CCC3C1C(c1c(cc(O)c(C(=O)c4ccccc4)c1O)O2)C3(C)C (stereo not given) | +
COc1ccccc1CNC(=O)[C@@H]1OCCN(C2CC2)[C@H]1c1ccccc1 | i
CC(=O)NCCC(=O)N1CCCCC1C(=O)Nc1ccc(-n2nc(C)cc2C)cc1 (stereo not given) | i
Nc1c(Br)cc(Br)cc1CNC1CCC(O)CC1 (stereo not given) | ?
CCN1C(=O)CCc2cc(NC(=O)c3ccn(CC)n3)ccc21 | i
CC1c2cccn2CCN1C(=O)Nc1cccc(Cl)c1 (stereo not given) | i
O=C(CCn1ccc2cc(S(=O)(=O)N3CCCCC3)ccc21)NCc1cccnc1 | i
CC(C)CNC(=O)c1ccc2c(=O)n(CC(C)C)c3nnc(SCC(=O)c4ccccc4)n3c2c1 | i
CCC[C@H]1C[C@H](C(=O)N[C@@H]([C@@H]2O[C@@H](SC)[C@@H](O)[C@@H](O)[C@@H]2O)[C@H](C)Cl)N(C)C1 | ?
CCCCNC(=O)c1ccc2c(=O)nc3c(-c4ccc(F)cc4)n[nH]n3c2c1 | i
CC(C)CCn1c(=O)c2ccc(C(=O)NC3CCCC3)cc2n2c(=O)n(Cc3cccc(F)c3)nc12 | i
O=C(NCc1ccco1)Nc1cccc(-c2ccc(N3CCCC3)nn2)c1 | i
COc1cccc(Nc2ccnc(-c3nnc(C)n3C3CCCCC3)c2)c1 | +
CSc1cccc(NC(=O)N2CCn3cccc3C2Cc2ccccc2)c1 (stereo not given) | i

Another view of part of the listing above:
molecule: CSc1cccc(NC(=O)N2CCn3cccc3C2Cc2ccccc2)c1 (stereo not given)
  Methyltransferases: i
molecule: CCCCNC(=O)c1ccc2c(=O)nc3c(-c4ccc(F)cc4)n[nH]n3c2c1
  Methyltransferases: i
molecule: Nc1c(Br)cc(Br)cc1CNC1CCC(O)CC1 (stereo not given)
  Methyltransferases: ?
molecule: O=C(NCc1ccco1)Nc1cccc(-c2ccc(N3CCCC3)nn2)c1
  Methyltransferases: i

Returning to the listing, repeating the 2 entries before the break.
molecule | Methyltransferases
COc1cccc(Nc2ccnc(-c3nnc(C)n3C3CCCCC3)c2)c1 | +
CSc1cccc(NC(=O)N2CCn3cccc3C2Cc2ccccc2)c1 (stereo not given) | i
CCNC(=O)N1CCOc2ccc(CN3CCOCC3)cc2C1 | i
CCN1CCn2c3c(c4cc(C)ccc42)CCCC31 (stereo not given) | i
COc1ccccc1C(=O)N1CCC2(CC1)NC(=O)c1ccccc1O2 | i
CNC(=O)[C@@H]1CN(C(=O)c2cc3cc(OC)ccc3[nH]2)C[C@H]1COC | i
Cn1c(=O)n(C)c2cc(S(=O)(=O)N(Cc3ccccc3)C(=O)c3cccnc3)ccc21 | i
COCCNC(=O)C(NC(=O)c1cccc(OC)c1)C1CCN(C(=O)COC)CC1 (stereo not given) | i
Cc1ccc(S(=O)(=O)c2nnn3c2nc(NCCC(C)C)c2ccccc23)cc1C | i
CC(C)[N+](C)(CCOC(=O)C1c2ccccc2Oc2ccccc21)C(C)C | i
COc1ccccc1NC(=O)CSc1nnc2n(Cc3ccccc3)c(=O)c3ccccc3n12 | i
CC12CC(c3ccoc3)OC(=O)C1CCC1(C)C2CCC(O)C1(C)O (stereo not given) | i
CCOc1ccc(N2C(=O)c3cc4oc(C)cc4n3CC2(C)C(=O)NC2CCCCCC2)cc1 (stereo not given) | i
CS(=O)(=O)N1CCCOCCNC(=O)[C@@H]2CCC[C@@H]21 | i
O=C1[C@H]2CN(Cc3ccncc3)C[C@H]2C(=O)N1Cc1ccc2c(c1)OCO2 | i
O=c1[nH]c2ccc(S(=O)(=O)NCc3ccccc3Cl)cc2[nH]1 | i
CNC(=O)C(C)N(C)C(=O)c1coc(CN2CCN(c3ccccc3F)CC2)n1 (stereo not given) | i
Cc1ccc(C2c3cccn3-c3sc4c(c3CN2C(=O)Nc2ccc(F)cc2)CCCC4)cc1 (stereo not given) | i
CCc1ccc(NC(=O)CSc2nnc3[nH]c(=O)c(Cc4ccc(C)cc4)nn23)cc1 | i
Cn1c(CO)c(-c2ccccc2)c2cc([N+](=O)[O-])ccc21 | ?
Cc1ccc(N2C(=O)c3nc4ccccc4n3CC2(C)C(=O)NC2CCCC(C)C2C)cc1 (stereo not given) | i
O=C(c1cscn1)N1CCC2(CCCN(CCC3CCCCC3)C2=O)C1 (stereo not given) | i
CC(=O)N1CCC(N[C@@H]2CO[C@H](CNC(=O)c3ccncc3)[C@H]2O)CC1 | i
O=C(c1ccc(OC2CCN(C(=O)C3CCCC3)CC2)nc1)N1CCOCC1 | i
COc1ccc(CNC(=O)CCC2CCCN(C(=O)CCN3CCCCO3)C2)c(OC)c1 (stereo not given) | i
COC(=O)c1cc2n(n1)CC(C)(C(=O)NC1CCCCC1)N(c1ccc(C)c(C)c1)C2=O (stereo not given) | i
Cc1ccnn1CCC(=O)N[C@@H]1COCC[C@H]1Oc1ccc(C(N)=O)cc1 | i
Cc1noc(C)c1C(=O)N1CCC2(CC1)C(=O)NCN2C(=O)Cc1ccccc1 | i
CC(C)c1nc2c(c(-c3ccc(O)cc3)n1)CCN(C(=O)C1CCCC1)CC2 | i
O=C1NC(=NC2CCCCC2)C2(CCN(CC3CCCCC3)CC2)N1c1cc(F)cc(F)c1 | i
C=C1C(O)CC2C(C(=O)O)=COC(O[C@@H]3O[C@H](COC(=O)/C=C/c4ccc(O)cc4)[C@@H](O)[C@H](O)[C@H]3O)C12 (stereo not given in full) | i
CCN(C1CCOCC1)C1CN(C(=O)C2CCCCC2)C1 | i
COc1cccc(CNC(=O)c2ccc3c(=O)nc4c(-c5ccc(C)cc5)n[nH]n4c3c2)c1 | i
Cc1cccc(CNC(=O)c2cc3n(n2)CC(C)(C(=O)NCCC(C)C)N(C)C3=O)c1 (stereo not given) | i
O=C(Cn1ccc2cc(S(=O)(=O)N3CCCCC3)ccc21)NCCN1CCOCC1 | i
COc1ccccc1CNC(=O)C1(C)Cn2c(cc3ccccc32)C(=O)N1CCC(C)C (stereo not given) | i
CCC(C(=O)NCc1ccc2c(c1)OCO2)n1ccc2cc(S(=O)(=O)N3CCCCC3)ccc21 (stereo not given) | i
Cc1c(Cl)cccc1NC(=O)N1CCn2c(C)ccc2C1C(C)C (stereo not given) | i
CN1CC[C@H]2CN(S(=O)(=O)c3ccc(NC(N)=O)cc3)C[C@H]21 | i
Cc1nc2c(NC3CCN(C(=O)c4cnccn4)CC3)cccn2n1 | i
CNC(=O)N1CCC(C2CCN(C(=O)Cn3cccn3)C2)CC1 (stereo not given) | i
C=C1C(=O)O[C@@H]2C3C(=C(C)[C@@H](O)[C@@H](OC(=O)/C(=C/C)COC(C)=O)[C@@H]12)C(=O)[C@H]1O[C@@]31C (stereo not given in full) | i
CC1(C)O[C@H]2CC(=O)OC[C@@]23C1=C(O)C(=O)[C@]1(C)C3CC[C@@]2(C)[C@H](c3ccoc3)OC(=O)[C@H]3O[C@]321 (stereo not given in full) | i
COc1ccc(-c2cc3n(n2)CC(C)(C(=O)NC2CCCCC2)N(Cc2ccccn2)C3=O)cc1 (stereo not given) | i
O=C(Nc1ccc2c(N3CCOCC3)ncnc2c1)c1cccc(Cl)c1 | +
CCOC(=O)c1cc2n(n1)CC(C)(C(=O)NCc1ccccc1)N(Cc1cccc(C)c1C)C2=O (stereo not given) | i
O=C(CCCn1ccc2cc(S(=O)(=O)N3CCCC3)ccc21)NCc1ccco1 | i
COC(=O)c1ccc(NC(=O)CN(C)S(=O)(=O)c2ccc3[nH]c4c(c3c2)CCCC4)cc1 | i
Cc1c(Cl)cccc1NS(=O)(=O)c1ccc2c(c1)NC(=O)CC(=O)N2 | i
O=C(Nc1cccc(F)c1)[C@@H]1C[C@@H](c2cccc(C(F)(F)F)c2)N(CC2CCOCC2)C1 | i
Cc1ccc(Cn2c(=O)c3ccccc3n3c(SCC(=O)Nc4cccc(Cl)c4)nnc23)cc1 | i
N#Cc1ccc(S(=O)(=O)N2CCc3c(nc(-c4ccc(F)cc4)[nH]c3=O)C2)cc1 | i
CCCN1C(=O)c2c(C(=O)Nc3ccccc3CC)ncn2CC1(C)C(=O)NCc1ccc(C)cc1 (stereo not given) | i
COc1ccc(CN2C(=O)c3cc(-c4ccc(OC)cc4)nn3CC2(C)C(=O)NCc2ccccc2)cc1 (stereo not given) | i
Cc1cc(C)n(CCC(=O)N2CCC(Cc3noc(C4CC4)n3)C2)n1 (stereo not given) | i
C/C(=C\CCC1(C)C2CCC(C2)C1(C)O)C(=O)O (stereo not given) | i
CC(=O)NCCc1ncc(C)n1C1CCC1 | ?
CN(Cc1nccs1)c1ncnc2ccc(-c3ccc4c(c3)OCO4)cc12 | +
C[C@@H]1O[C@@H](O[C@H]2[C@@H]3C=CO[C@@H](O[C@@H]4O[C@H](CO)[C@@H](O)[C@H](O)[C@H]4O)[C@@H]3[C@@]3(CO)O[C@@H]23)[C@H](O)[C@H](OC(=O)/C=C/c2ccccc2)[C@H]1O | i
COc1ccc(NC(=O)c2nc3sccn3c2-c2ccncc2)cc1 | i
Cc1ccc(-c2nnn3c2nc(NCc2ccc(F)cc2)c2ccccc23)cc1 | i
CC(C)CNC(=O)c1ccc2c(=O)n(Cc3ccccc3)c3nn(Cc4ccc(F)cc4)c(=O)n3c2c1 | i

(list continues)
molecule | Methyltransferases
CCc1cc2c(cc3n2CC(C)(C(=O)NC2CCC(C)CC2)N(C2CCCC2)C3=O)s1 (stereo not given) | i
CC(CN1C(=O)c2cc3occc3n2CC1(C)C(=O)NC1CCCCC1)c1ccccc1 (stereo not given) | i
O=c1[nH]cnc2c1ncn2[C@@H]1O[C@H](CO)[C@@H](O)[C@H]1O | ?
Cc1cc2c(cc3n2CC(C)(C(=O)NC2CCCCC2)N(Cc2cccs2)C3=O)o1 (stereo not given) | i
Cn1c(N2CCCCS2(=O)=O)nc(C(=O)NCc2ccc(F)cc2)c(O)c1=O | i
Cc1cc(C)cc(NC(=O)Cn2nc3n(C)c(=O)c4ccc(C(=O)NC5CCCC5)cc4n3c2=O)c1 | i
O=C(CCn1ccc2cc(S(=O)(=O)N3CCCC3)ccc21)NC1CCCC1 | i
CC(C)CCn1c(=O)c2ccc(C(=O)NCC(C)C)cc2n2c(=O)n(CC(N)=O)nc12 | i
Cc1ccc(NS(=O)(=O)c2cc3c(cc2C)n(C)c(=O)n3C)cc1C | i
CC1(C(=O)NC2CCCCCC2)Cn2c(ccc2-c2ccco2)C(=O)N1C1CCCCCC1 (stereo not given) | i
CC1(C(=O)NC2CCCCCC2)Cn2c(cc3sccc32)C(=O)N1Cc1cccc(F)c1 (stereo not given) | i
O=C(O)/C(=C/c1c(C(=O)O)[nH]c2cc(Cl)cc(Cl)c12)c1ccccc1 | i
CCn1cc(CN(C)CC(=O)N2CCCCCC2)ccc1=O | i
COc1ccc(N2CCN(CCNS(=O)(=O)c3ccc4oc(=O)c5ncn(C)c5c4c3)CC2)cc1 | i
CN1C[C@H](O)C[C@H]1c1nnc2n1CCN(C(=O)C1CCCCC1)CC2 | i
COc1ccccc1CNC(=O)C1(C)Cn2c(cc3ccccc32)C(=O)N1Cc1ccc(F)cc1 (stereo not given) | i
Cc1ccc2c(n1)N(C)[C@H](CO)CCN(Cc1cccc(Cl)c1)C2 | i
COCCNC(=O)CCc1nnc2n(CCc3ccccc3)c(=O)c3ccccc3n12 | i
C/C(=C\CCC(C)CCO)C(=O)OC1(C)CCC2C(C(=O)O)=COC(OC3OC(CO)C(O)C(O)C3O)C21 (stereo not given) | i
COc1ccc(CN2C(=O)C(=O)c3cc(S(=O)(=O)N4CCC[C@H]4COc4cccnc4)ccc32)cc1 | i
CCCCN(C)C(=O)Cn1c(=O)oc2cc(S(=O)(=O)N3CC(C)CC(C)C3)ccc21 (stereo not given) | i
CCOc1ccc(CCNC(=O)c2cc3n(n2)CC(C)(C(=O)NC2CCCCCC2)N(C)C3=O)cc1 (stereo not given) | i
CCOC(=O)c1cc2n(n1)CC(C)(C(=O)NCCC(C)C)N(c1cc(C)ccc1OC)C2=O (stereo not given) | i
CN(CCO)C[C@@H]1CN(C(=O)CCc2nc3ccc(F)cc3[nH]2)C[C@@H]1CO | i
Cc1cnccc1CN(C)Cc1cc2n(n1)CCNC2 | i
O=C(COc1ccc(-c2nnc3n2CCCC3)cc1)NCc1ccccc1Br | i

Screening results as filed in PubChem.

Only part of the results is shown; rates above refer to the full screens.
